# High-throughput results: PubChem, ICCB-Longwood Screening Facility, Harvard Medical School
# HCMV NEC inh = disrupts HCMV UL50-UL53 complex binding. actives 0.15% (n = 190,000). HTRF UL50-UL53 interaction, normalized percent inhibition. AID 1918969. inhibition, % (test concentration not listed);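 active = both replicates at 50% or more, plus weaker picks with an unusually low signal ratio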;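 note: stock transfer was 100 nL into about 20 µL; 0% = negative control wells and 100% = wells with untagged competitor protein; inactives centre near -12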
# GIV-Gai inh = inhibitors of GIV GBA-motif binding to rat Galpha-i3. P08753. Galpha-i3/FITC-GIV peptide fluorescence polarization, 90 min; stronger effect = lower value; scaled: aluminum fluoride 0%, vehicle 100%. percent of control (FP), % (no concentration beside the values). actives 0.42% (n = 210,000). AID 1224905;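 active = replicate mean at 85% of control or lower, very high polarization wells dropped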;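 note: wells of about 15 µL received 100 nL stock; the first replicate is given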
# Target sequence (P08753 whole entry, looked up): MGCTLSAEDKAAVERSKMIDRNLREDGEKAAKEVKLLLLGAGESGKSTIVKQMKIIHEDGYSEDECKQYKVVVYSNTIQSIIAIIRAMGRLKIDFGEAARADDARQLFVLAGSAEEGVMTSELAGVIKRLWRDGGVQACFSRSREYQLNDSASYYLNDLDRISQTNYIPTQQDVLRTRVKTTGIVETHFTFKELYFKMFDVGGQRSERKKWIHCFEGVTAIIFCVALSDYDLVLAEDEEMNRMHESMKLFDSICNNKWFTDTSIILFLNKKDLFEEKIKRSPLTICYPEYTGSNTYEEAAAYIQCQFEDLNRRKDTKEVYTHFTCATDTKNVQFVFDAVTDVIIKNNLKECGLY
# Sa growth inh = inhibitors of Staphylococcus aureus growth at 42 °C; relative growth, % (test concentration not listed); actives 0.53% (n = 170,000); AID 720641; S. aureus RN4220 growth, OD600, 20 h; stronger effect = lower value;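 active = growth at 42 °C up to 50% and 20 or more points under that at 30 °C, or under 10% at both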;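 note: 300 nL library stock went into each well; scaled to the means of positive and negative controls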
# Sa growth inh second temp = recorded beside Sa growth inh, whose call it bears; relative growth, %; measured here: growth at 30 °C;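 optical density after 20 h as mean of two plates; 100% = untreated growth and lower means inhibition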
# * = called active by the depositor; . = no result given; & = joins results of further samples.
No.	SMILES	HCMV NEC inh	GIV-Gai inh
1	CN(Cc1ccccc1F)C(=O)CCCn1c(=O)oc2ccccc21	-1	.
2	O=C(Cc1csc(N2CCOCC2)n1)N/N=C/c1ccc(F)cc1	-34	.
3	Cc1ccc(N2C(=O)CN(Cc3ccccc3)[C@H]3CS(=O)(=O)C[C@H]32)cc1	-21	108
4	CCCS(=O)(=O)N1CCCC(C(=O)NCCCN2CCN(c3ccc(F)cc3)CC2)C1 (stereo not given)	7	99
5	Cc1cc(Cl)c2ccccc2[n+]1[O-]	-70	104
6	CC(C)CNS(=O)(=O)C1CCS(=O)(=O)C1 (stereo not given)	-5	102&103
7	CCOC(=O)COc1ccc(S(=O)(=O)NCc2ccncc2)cc1	-9	101
8	Cc1cc(NC(=O)c2cccc(-n3cnnc3)c2)no1	-28	105
9	Cc1c(NC(=O)c2cc(-c3ccc(Cl)cc3)on2)c(=O)n(-c2ccccc2)n1C	4	106
10	COc1ccc2sc(N(Cc3cccnc3)C(=O)C3COc4ccccc4O3)nc2c1 (stereo not given)	.	98

No.	Sa growth inh	Sa growth inh second temp
1	90	90
2	70	81
3	.	.
4	96	97
5	116	96
6	93	85
7	87	82
8	99	76
9	95	96
10	115	92

# New compounds follow.
No.	SMILES	HCMV NEC inh	GIV-Gai inh
11	COc1cccc(NC(=O)COC(=O)C2CCCCC2)c1	20	.
12	N#Cc1cccc(C(=O)Cc2cccc(Oc3ccccc3)c2)c1	-22	96
13	CCN1C(=O)c2ccccc2S(=O)c2ccc(C(=O)N3CCN(c4ccc(F)cc4)CC3)cc21 (stereo not given)	-19	98
14	O=C1CCCCC1C1(O)C(=O)Nc2ccccc21 (stereo not given)	-16	100
15	COc1cccc(NC(=O)CSc2nc(N)cc(=O)[nH]2)c1	.	105
16	CN(C)c1nc(NCCO)c2cnn(C)c2n1	-3	110
17	O=S(=O)(c1ccc(Cl)cc1)c1nc(-c2cccs2)oc1N1CCCCC1	-21	104
18	O=C(c1cc(-c2ccc(O)cc2)on1)N1CCCCC1	-1	100
19	C=CCN1CCc2c(cc(O)c(O)c2Cl)C(c2ccccc2)C1 (stereo not given)	-5	107
20	COC(=O)c1sc(-n2cccc2)c(C(=O)OC)c1C	-3	101

No.	Sa growth inh	Sa growth inh second temp
11	103	100
12	103	87
13	80	90
14	91	80
15	106	85
16	96	93
17	101	94
18	102	80
19	.	.
20	89	89

# Quoted at random: four compounds from above
No.	SMILES	HCMV NEC inh	GIV-Gai inh
17	O=S(=O)(c1ccc(Cl)cc1)c1nc(-c2cccs2)oc1N1CCCCC1	-21	104
15	COc1cccc(NC(=O)CSc2nc(N)cc(=O)[nH]2)c1	.	105
10	COc1ccc2sc(N(Cc3cccnc3)C(=O)C3COc4ccccc4O3)nc2c1 (stereo not given)	.	98
19	C=CCN1CCc2c(cc(O)c(O)c2Cl)C(c2ccccc2)C1 (stereo not given)	-5	107

No.	Sa growth inh	Sa growth inh second temp
17	101	94
15	106	85
10	115	92
19	.	.

# Following part.
No.	SMILES	HCMV NEC inh	GIV-Gai inh
21	Cc1cccc(C)c1NC(=O)C(=O)NCC(c1ccc2c(c1)OCO2)N1CCOCC1 (stereo not given)	.	95
22	Cc1cccc(NC(=O)Nc2nnc(N3CCCC3)s2)c1	5	100
23	O=C(NC1CCCCC1)c1ccc(Cn2c(SCc3ccc(F)cc3)nc3cccnc32)cc1	.	106
24	FC(F)(F)Oc1ccc(OCc2n[nH]c(=S)o2)cc1	17	98
25	O=C(On1c(C2CCCCC2)nc2ccccc2c1=O)c1ccc(F)cc1	4	104
26	COc1ccc(N2Cc3cccc(C(=O)NCCC4=CCCCC4)c3C2=O)cc1	.	104
27	Cn1c(=O)[nH]c(=O)c2c(C3C(=O)Nc4ccccc43)c(-c3ccc(Br)cc3)[nH]c21 (stereo not given)	-26	104
28	CCOc1ccc2c(-c3ccccc3)cc(=O)oc2c1	-18	.
29	O=C1c2c(O)cccc2Cc2cccc(O)c21	-58	.
30	COc1ccc(S(=O)(=O)Nc2ccc(C#N)cc2)cc1OC	-3	107

No.	Sa growth inh	Sa growth inh second temp
21	99	88
22	102	86
23	102	110
24	90	75
25	.	.
26	90	99
27	.	.
28	108	77
29	75	35
30	95	88

# (cont.)
No.	SMILES	HCMV NEC inh	GIV-Gai inh
31	COC(=O)c1ccc(-c2cccs2)nc1C	.	103
32	O/N=C1\CCCCC1C1=CCCCC1 (stereo not given)	2	103
33	Cn1cc(S(=O)(=O)N2CCCCC2)cc1C(=O)Nc1ccccc1	-14	105
34	CCn1c(-c2ccccc2)csc1=Nc1ccc2[nH]c(=O)[nH]c2c1	-26	.
35	CN(C)/C=C/C(=O)c1cc(OCC(F)(F)F)ccc1OCC(F)(F)F	4	109
36	CCc1ccc2oc(-c3cc(NC(=O)c4cccnc4)cc(C)c3O)nc2c1	-9	104
37	O=C1C(Cc2c[nH]c3ccccc23)NC(=S)N1c1ccccc1Cl (stereo not given)	.	164
38	Cc1ccc2oc(=O)cc(CN(C)CCO)c2c1	-14	107
39	Cc1oc(-c2cccs2)nc1CSc1ncnc2nc[nH]c12	-30	102
40	C=CCN1C(=O)NC(=O)/C(=C/c2cccc(OCc3ccccc3Cl)c2)C1=O	73*	114

No.	Sa growth inh	Sa growth inh second temp
31	92	83
32	111	102
33	.	.
34	84	88
35	92	95
36	106	86
37	99	69
38	108	92
39	.	.
40	.	.

# Next section.
No.	SMILES	HCMV NEC inh	GIV-Gai inh
41	CCOC(=O)Cn1c(=O)oc2cc(S(=O)(=O)N3CCN(c4cc(C)ccc4C)CC3)ccc21	-32	99
42	CCC(=O)N1CCCC1c1nc2ccccc2n1CC(=O)N1CCCC1 (stereo not given)	-15	102
43	COc1cccc(NC(=O)C2CCN(c3c(N4CCCC4)c(=O)c3=O)CC2)c1	3	101
44	CC1=C(C(N)=O)C(c2ccccc2F)n2nc(-c3ccc(Cl)cc3)nc2N1 (stereo not given)	2	104
45	Nc1nnc(C23CC4CC(CC(C4)C2)C3)s1	-3	94
46	Cc1ccc2nc(-c3ccc(O)cc3)c(Nc3ccc4c(c3)OCO4)n2c1	-22	100
47	COc1ccc(O)c(C(=O)c2cnn(-c3nnc(C)c(=O)[nH]3)c2)c1	-30	.
48	CCOc1ccc(N)cc1OCC	-21	.
49	O=C(COC(=O)CN1C(=O)c2ccccc2C1=O)Nc1ccccc1	-25	.
50	COc1ccc(NCc2nnc(SCC(N)=O)n2-c2ccc(C)cc2)cc1	-18	105

No.	Sa growth inh	Sa growth inh second temp
41	117	96
42	.	.
43	.	.
44	112	94
45	95	93
46	105	88
47	92	86
48	112	79
49	75	92
50	113	98

# Following part.
No.	SMILES	HCMV NEC inh	GIV-Gai inh
51	N#C/C(=C\Nc1ccc2c(c1)OCCO2)c1nc2ccccc2[nH]1	-10	122
52	COc1ccc(CNC(=O)C(=O)NCC(c2ccco2)S(=O)(=O)c2ccc(C)cc2)cc1 (stereo not given)	.	99
53	CC1=CC(=C(C#N)c2nc3ccccc3s2)C=C(C)N1CC1CCCO1 (stereo not given)	7	.
54	CC(C)OCCCn1c(=O)c2ccccc2n2c(CCC(=O)Nc3ccccc3)nnc12	-4	105
55	S=C(c1ccccc1)N1CCOCC1	2	.
56	CN1C(=O)CC(Nc2ccc(N(C)C)cc2)C1=O (stereo not given)	-107	108
57	Cc1nc2nc3c(c(N4CCN(c5cccc(Cl)c5)CC4)n2n1)CCC3	-2	102
58	Cc1nc(-c2cc3cccc(C)c3nc2N2CCCC2)no1	1	105
59	Cc1ccc2c(c1)N(C(=O)N1CCCC(C(=O)NCc3ccc(Cl)cc3)C1)CC(C)O2 (stereo not given)	-11	109
60	Cc1ccc(S(=O)(=O)c2cnc(SCC(=O)Nc3ccc4c(c3)OCCO4)[nH]c2=O)cc1C	-2	103

No.	Sa growth inh	Sa growth inh second temp
51	100	58
52	120	85
53	118	93
54	99	79
55	117	87
56	85	85
57	.	.
58	.	.
59	116	85
60	98	92

# Look-ups from above:
# Value of S=C(c1ccccc1)N1CCOCC1 under Sa growth inh: 117
# Value of Cc1ccc2c(c1)N(C(=O)N1CCCC(C(=O)NCc3ccc(Cl)cc3)C1)CC(C)O2 (stereo not given) under HCMV NEC inh: -11
# Value of Cc1nc2nc3c(c(N4CCN(c5cccc(Cl)c5)CC4)n2n1)CCC3 under HCMV NEC inh: -2
# Value of N#C/C(=C\Nc1ccc2c(c1)OCCO2)c1nc2ccccc2[nH]1 under Sa growth inh second temp: 58
# Value of CC1=CC(=C(C#N)c2nc3ccccc3s2)C=C(C)N1CC1CCCO1 (stereo not given) under Sa growth inh second temp: 93
# Value of CC(C)OCCCn1c(=O)c2ccccc2n2c(CCC(=O)Nc3ccccc3)nnc12 under HCMV NEC inh: -4
# Value of CN1C(=O)CC(Nc2ccc(N(C)C)cc2)C1=O (stereo not given) under HCMV NEC inh: -107

# Further entries
No.	SMILES	HCMV NEC inh	GIV-Gai inh
61	Cc1ccc(Sc2cn[nH]c2C)cc1	-12	100
62	CCOC(=O)c1c(NC(=O)c2cc3ccccc3c(=O)o2)sc2c1CCCCCC2	.	96
63	COC(=O)c1sc2ccccc2c1S(=O)(=O)N1CCC(C(N)=O)(N2CCCCC2)CC1	-21	106
64	CC(C)CCn1c(=O)c2ccccc2n2c(CCC(=O)NCc3cccnc3)nnc12	-18	101
65	O=C(CC(C(=O)O)c1cccc(Cl)c1)c1ccccc1 (stereo not given)	-20	104
66	S=c1[nH]nc(-c2cccnc2)n1C1CCCCC1	.	102
67	CCc1ccc(C(=O)CSc2cccc[n+]2[O-])cc1	-19	.
68	O=C(CSc1nc2ccccc2[nH]1)OCc1ccccc1	-7	106
69	COc1ccc2c(c1)CCc1c(C(=O)Nc3ccc(C#N)cc3)noc1-2	-9	100
70	Nc1ccc2nc(SCC(=O)c3ccc(F)cc3)sc2c1	-4	.

No.	Sa growth inh	Sa growth inh second temp
61	.	.
62	101	85
63	.	.
64	87	86
65	.	.
66	89	77
67	102	79
68	.	.
69	92	94
70	85	73

# Later entries.
No.	SMILES	HCMV NEC inh	GIV-Gai inh
71	O=C(Oc1ccc2c(=O)c(-c3ccccc3)coc2c1)N1CCOCC1	.	101
72	O=C(Cn1nnc(-c2ccccc2S(=O)(=O)N2CCN(c3nc4ccccc4s3)CC2)n1)NC1CCCC1	5	114
73	N#CC(C#N)=C(C#N)c1ccc(N(c2ccccc2)c2ccccc2)cc1	-15	.
74	CC12CCC(C1)C(C)(C)C2NC(=O)c1ccco1 (stereo not given)	43	106
75	COc1cccc(NC(=O)Cn2cc(S(=O)(=O)N3CCCC3)c(S(=O)(=O)N3CCCC3)c2)c1	.	108
76	CCCC(CCC)C(=O)Nc1ccc(NC(=O)c2ccco2)cc1	-1	103
77	CCNc1nc(NC(C)C)nc(Oc2ccccc2C(=O)OC)n1	-9	107
78	Cn1c(=O)n(C)c2cc(SC3CCCCC3)c(NC(=O)c3ccccc3)cc21	-14	105
79	CCOc1ccc(C(=O)NCCc2sc(-c3ccc(F)cc3)nc2C)cc1	.	98
80	COc1cccc(CNc2nc3c(-c4cccc(C)c4)nnn3c3ccccc23)c1	-42	104

No.	Sa growth inh	Sa growth inh second temp
71	87	82
72	.	.
73	83	82
74	113	97
75	115	80
76	68	92
77	.	.
78	.	.
79	98	95
80	117	86

# Next section
No.	SMILES	HCMV NEC inh	GIV-Gai inh
81	O=C(NC1CCCC1)c1cccc(S(=O)(=O)N2CCCC2)c1	-34	.
82	Nc1nc(Nc2cccc(C(F)(F)F)c2)sc1C(=O)c1ccccc1	.	96
83	COc1ccc(-c2nc(CS(=O)CC(=O)NCc3ccc(F)cc3)c(C)o2)cc1OC (stereo not given)	-29	105
84	CCc1ccccc1NC(=O)N1CCCC1C(=O)O (stereo not given)	-9&-23	95&102
85	CC(=O)Nc1ccccc1OC(=O)c1sc2ccccc2c1Cl	-21	.
86	CC(c1ccc(-n2cncn2)cc1)N(C)c1ncnc2sc3c(c12)CCCC3 (stereo not given)	-5	.
87	c1cncc(-c2nc3ccccc3s2)c1	29	104
88	CCn1c(=O)c2c(nc3n2CC(C)CN3C2CCCCC2)n(C)c1=O (stereo not given)	-23	101
89	CC1CCN(S(=O)(=O)c2nnc(NC(=O)c3ccccc3)s2)CC1	-14	105
90	COC(=O)Cn1c(C)nc2ccccc21	-6	104

No.	Sa growth inh	Sa growth inh second temp
81	105	84
82	110	85
83	112	84
84	95	82
85	112	92
86	109	92
87	100	77
88	.	.
89	.	.
90	103	85

# New compounds follow.
No.	SMILES	HCMV NEC inh	GIV-Gai inh
91	COc1cccc(C2C(=O)N(C3CCCCC3)CC(=O)N2CCc2ccc(OC)c(OC)c2)c1 (stereo not given)	.	104
92	CCOC(=O)C1CCN(C(=O)c2ccc3c(c2)N=C(CC)c2cc(C)ccc2S3)CC1	-3	101
93	CCCCNC(=O)CC1N=C2c3ccccc3N=C(SCC(=O)N3CCN(c4ccccc4)CC3)N2C1=O (stereo not given)	-10	102
94	Cc1nc(-c2ccc(-n3nncc3-c3cccs3)cc2)cs1	-44	.
95	CC(NCc1cccs1)C(=O)Nc1ccc(S(=O)(=O)N2CCCC2)cc1 (stereo not given)	-26	.
96	C=CCN1C(=O)/C(=C\c2cccs2)S/C1=N/c1nnc(CC)s1	-27	101
97	O=C(NCc1ccco1)C1CCN(c2nc3ccccc3n2Cc2cccc(F)c2)CC1	.	106
98	COc1ccc(CCNC(=O)c2ccc3noc(-c4ccccc4)c3c2)cc1OC	1	109

No.	Sa growth inh	Sa growth inh second temp
91	100	85
92	106	80
93	113	79
94	83	93
95	69	97
96	.	.
97	142	82
98	114	97
